High-throughput results from PubChem BioAssay.
Marburg entry inh = blocks Marburg virus binding to or entry into cells | Marburg virus pseudotyped entry inhibition, cell reporter; control for the full effect not named in the record; about a third of the inactives were read at about 46 µM | hit rate 1.8% among 300,000 | AID 540276 | Potency, µM (highest dose often 37.8 µM), inactives show at the top dose activity change, negative = inhibition, actives largely listed as inhibitors; active = well fitted inhibition curve with a large enough effect; inconclusive = small, poorly fitted or top-dose-only effect, or effect the other way; inactive = flat fitted curve, though single readings scatter; tested in HEK293 cells; about a fifth of its hits are not listed in these tables; further: on the % scale 0 is the no-effect control and ±100 the full control effect; luciferase read-out
Cruzain noTriton = cruzain (T. cruzi) inhibition without detergent; purified cruzain, Z-FR-AMC fluorescence, no detergent; AID 1476; Potency, µM, for the others: max response, negative = inhibition, hits mostly inhibitors; hit rate 2.3% among 200,000;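 further: plate controls were enzyme without inhibitor for no effect and buffer without enzyme for full effect; nearly all actives have a fitted effect of over 40% in size; top concentration of the series not given in the record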
Target sequence (P25779 123-467 limits assumed): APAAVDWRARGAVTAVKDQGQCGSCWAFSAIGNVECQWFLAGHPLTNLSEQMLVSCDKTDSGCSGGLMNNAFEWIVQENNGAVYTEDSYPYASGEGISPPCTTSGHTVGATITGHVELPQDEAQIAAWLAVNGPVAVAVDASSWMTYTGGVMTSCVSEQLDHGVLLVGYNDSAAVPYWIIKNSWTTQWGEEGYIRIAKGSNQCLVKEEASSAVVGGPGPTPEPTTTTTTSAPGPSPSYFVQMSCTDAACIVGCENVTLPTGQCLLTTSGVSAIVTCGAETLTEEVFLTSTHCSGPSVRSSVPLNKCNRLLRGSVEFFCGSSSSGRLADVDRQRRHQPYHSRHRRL
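Purified cruzain at 1.5 nM, pre-incubated 15 min with compound at room temperature in 100 mM sodium acetate pH 5.5, 5 mM DTT, 0.00005% Triton X-100. Reaction started with 2 uM Z-FR-AMC; AMC fluorescence increase over 60 s gives rate.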
Lassa entry inh = inhibitors of Lassa virus binding or cell entry. Lassa virus pseudotype entry inhibition, cell reporter; control for the full effect not named in the record. Potency, µM (series often up to 37.9 µM), for the others: top-dose activity change, negative = inhibition, usual class: inhibitors. hit rate 1.2% among 300,000; active means well fitted inhibition curve with a large enough effect; inconclusive means small, poorly fitted or top-dose-only effect, or effect the other way; inactive means flat fitted curve, though single readings scatter; tested in HEK293 cells; further: on the % scale 0 is the no-effect control and ±100 the full control effect; nearly all actives have a fitted effect of over 50% in size; luciferase read-out
RE007 growth inh = less growth of the S. pombe RE007 Vpr strain; S. pombe RE007 Vpr strain, BacTiter-Glo ATP luminescence, 24 h; control for the full effect not named in the record; Potency, µM (series often up to 92.2 µM), without a hit: at the highest dose activity change, negative = less growth; hit rate 0.21% among 360,000; active = well fitted falling curve with a large enough effect; inconclusive = small, poorly fitted or top-dose-only effect; inactive = no such curve, though single readings can be large or run the other way;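 further: on the % scale 0 is the no-effect control and ±100 the full control effect; nearly all actives have a fitted effect of over 50% in size; the assay follows cell death caused by Vpr and the record does not say whether a fall means rescue or toxicity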
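Fission yeast RE007 carrying one integrated HIV-1 vpr copy, seeded at OD 0.01 in PMG+AL medium with 23 nL pinned compound. Grown 24 h at 30 degrees; viability read by BacTiter-Glo luminescence after 5 min.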
Cruzain Triton = blocks cruzain activity in presence of Triton detergent; P25779; purified cruzain, Z-FR-AMC fluorescence, 0.01% Triton; Potency, µM, for the others: max response, negative = inhibition, hits mostly inhibitors; hit rate 0.43% among 200,000; AID 1478;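 further: plate controls were neutral wells for no effect and buffer without enzyme for full effect; nearly all actives have a fitted effect of over 40% in size; top concentration of the series not given in the record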
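Steps: dispense cruzain (1.5 nM final) in acetate buffer pH 5.5 with DTT and 0.01% Triton X-100; pin-transfer compounds; incubate 15 min RT; add Z-FR-AMC (2 uM final); read fluorescence every 30 s, using the 60 s intensity change.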
SARS PLpro yeast = inhibitors of SARS-CoV papain-like protease in yeast; S. cerevisiae expressing SARS-CoV PLpro, growth rescue; control for the full effect not named in the record; hit rate 0.19% among 330,000; Potency, µM (top dose mostly 32.9 µM), inactives show top-dose activity, positive = growth rescue; active means well fitted rising curve with a large enough effect; inconclusive means small, poorly fitted or top-dose-only effect; inactive means no such curve, though single readings can be large or run the other way; further: 0% is about no effect; nearly all actives have a fitted effect of over 55% in size; growth read by luminescence after 48 h
NS1 inh = blocks influenza NS1 protein function | S. cerevisiae slowed by influenza A NS1, growth recovery by OD600 | Potency, µM (series often up to 46.1 µM), for inactives: at the top dose activity, positive = more growth | hit rate 0.4% among 270,000 | AID 2326; active means well fitted rising curve with a large enough effect; inconclusive means small, poorly fitted or top-dose-only effect; inactive means no such curve, though single readings can be large or run the other way; further: nearly all actives have a fitted effect of over 50% in size
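In this qHTS, NS1 from influenza A is expressed in budding yeast, where it slows growth. Cells are switched from glucose to 2% galactose medium (pH 6.0, -URA), treated with compound, and growth recovery is read at OD600.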
2A StopGo = lowers the luciferase signal of an FMDV 2A StopGo reporter. Potency, µM (series often up to 57.9 µM), without a hit: at the highest dose signal change, negative = less light. human cells with a luciferase reporter of 2A StopGo recoding; control for the full effect not named in the record. AID 1159524. hit rate 1.2% among 410,000; active = well fitted falling curve with a large enough effect; inconclusive = small, poorly fitted or top-dose-only effect; inactive = no such curve, though single readings can be large or run the other way; tested in HEK293T cells; further: on the % scale 0 is the no-effect control and ±100 the full control effect; nearly all actives have a fitted effect of over 45% in size; luciferase light after 4 h
* marks the source's active call; other numbers are inactive results; ? = inconclusive; . = no result given; & = joins results of further samples; [ ] = dose if it differs, or a comment. Unless noted, the call rests on the fitted dose curve; in most records, active means well fitted curve in the direction sought with a large enough effect; inconclusive means small, poorly fitted or top-dose-only effect, or another doubt; inactive means no such curve, though single readings can be large; an effect the other way counts as inactive or inconclusive. Potency means the concentration at half of the fitted maximal effect.

SMILES	Marburg entry inh	Cruzain noTriton	Lassa entry inh	RE007 growth inh	Cruzain Triton	SARS PLpro yeast	NS1 inh	2A StopGo
O=C(CN(C(=O)Cn1nnc(-c2cccs2)n1)c1ccc2c(c1)OCCO2)NCC1CCCO1 (stereo not drawn)	3%[46.1 µM]	6%	13%	10%	1.1%	1%	-7%	-7%
Nc1nc(-c2ccco2)c(-c2ccco2)s1	-2%	-1%	10%	-2%	-8.3%	-5%	-7%	-11%
O=C(NCCc1ccc(F)cc1)c1cccs1	-12%	5%	11%	-1%	-1.9%	8%	-20%	29%
CC(C)(C)c1ccc(S(=O)(=O)C(C)(C)C)cc1	12%[46.1 µM]	.	0%	6%	.	0%	.	3%
O=c1[nH]n2c(=O)c3c([nH]c2c1N=Nc1ccccc1)CCC3	0%	-15%	-17%	1%	-13%	3%	27%	-12%
O=C(O)c1ccc2nnn(O)c2c1	11%[46.1 µM]	.	25%	-3%	.	1%	4%	68%[activator]
CCCCN1CC(c2nc3ccccc3n2CCCCOc2cc(C)ccc2C)CC1=O (stereo not drawn)	?	-9%	8%[46.1 µM]	.	2.7%	.	.	?
O=C(O)c1cccc2c1-c1ccc(Cl)cc1C2=O	9%	.	12%	-13%	.	.	.	-19%
C=CCNC(=S)Nc1cccc2ccccc12	4%	13%	-15%	-3%	2.5%	5%	-21%	.
c1ccc(-c2nc(-c3cccs3)[nH]c2-c2ccccc2)cc1	?	16%	4%	19%	0.9%	-1%	5%	0%
Cc1ccc(C)c(N(CC(=O)NCc2ccc3c(c2)OCO3)C(=O)CCC(=O)Nc2ccccn2)c1	?	10%	?	16%	-1.3%	3%	-5%	-13%
O=C(NCc1cccnc1)C(=O)NCC(c1cccnc1)N1CCN(c2ccccc2)CC1 (stereo not drawn)	.	0%	4%[46.1 µM]	.	-1.5%	.	.	-15%
CCCNC(=O)C(C)n1nc(C)c2c(C)n(-c3ccccc3)nc2c1=O (stereo not drawn)	.	9%	2%[46.1 µM]	.	-0.8%	.	.	2%
COC(=O)COc1ccc(NC(=O)Cn2nc(-c3ccccc3)c3ccccc3c2=O)cc1	.	.	.	-13%	.	2%	3%	-7%
O=C(CN1CCN(CC(=O)Nc2ccccn2)CC1)Nc1ccccn1	3%	-7%	5%	21%	0.5%	7%	-3%	-17%
CN(C)CCCn1c(=S)[nH]c2ccccc2c1=O	?	.	1%[46.1 µM]	13%	.	-2%	.	-9%
COc1ccccc1CNCc1ccc(C(=O)O)s1	-4%[46.1 µM]	6%	-1%[46.1 µM]	.	-1.9%	.	.	0%
CSc1nc(Nc2ccc(Cl)cc2)c(C#N)c(=O)[nH]1	-1%	.	-6%	-1%	.	-6%	2%	-18%
Cc1cc(C)cc(OCCn2c(C3CC(=O)N(c4ccccc4Cl)C3)nc3ccccc32)c1 (stereo not drawn)	?	2%	?	.	-9.1%	3%	.	-24%
CCN(CC)S(=O)(=O)c1cccc(S(=O)(=O)N2CCCCC2)c1	5%	-6%	7%	8%	4.1%	3%	4%	.
CC(=O)c1c(C)oc2c(Cl)cc(NS(=O)(=O)c3ccc(Cl)cc3)cc12	.	-7%	10%[46.1 µM]	.	0.3%	.	.	-12%
Cn1c(C(=O)Nc2ccc(Cl)cc2)cc2cc(Cl)ccc21	.	.	.	-11%	.	-9%	6%	1%
Cn1c(CO)nc2c3ccccc3ccc21	6%[46.1 µM]	.	5%[46.1 µM]	2%	.	.	.	19%
COc1ccc(NC(=O)C(CC(C)C)NC(=O)c2ccccc2C)cn1 (stereo not drawn)	1%	4%	3%	-10%	13%	-1%	-3%	0%
Cn1c(N2CCC(C(N)=O)CC2)nc2c1c(=O)n(Cc1ccc(Cl)cc1)c(=O)n2C	0%	?	13%	2%	2.1%	3%	-15%	-9%
CCN(CC)C(=O)c1ccc2c(=O)n(Cc3ccc4c(c3)OCO4)c(=S)[nH]c2c1	.	.	.	-9%	.	-1%	-1%	2%
O=C(NCCCN1CCOCC1)Nc1ccc(Cc2ccc(NC(=O)NCCCN3CCOCC3)cc2)cc1	?	1%	3%&2%	-13%	-3.7%	17%	-8%	-8%
COc1ccc2[nH]c(=O)c(CN(CCO)C(=O)c3ccccc3F)cc2c1	2%	5%	-15%	1%	2.9%	3%	1%	-1%
N#Cc1cccc(NCC(=O)Nc2ccc3c(c2)OCCO3)c1	?	.	?	-4%	.	-1%	5%	23%
Cc1ccc(S(=O)(=O)CCC(=O)OCc2nc(N)nc(Nc3ccccc3C)n2)cc1	4%	.	-4%	8%	.	0%	.	-2%
Cc1cc(C(=O)COC(=O)c2ccc(N)cc2)c(C)n1-c1c(C)n(C)n(-c2ccccc2)c1=O	?	.	1%	11%	.	1%	12%	2%
Cc1ccc(OCCNC(=O)c2ccccc2N)cc1	.	-10%	.	-10%	-1.2%	4%	-4%	1%
COc1ccc(C(=O)CCC(=O)NCc2cc(OC)cc(OC)c2)cc1	.	.	.	-6%	.	-18%	2%	2%
O=C(CSc1nc2ccccc2c(=O)n1-c1ccccc1)N1CCCC1	?	0%	6%	-11%	-2.3%	2%	-9%	22%
Cc1cccc(NC(=O)CSc2ncnc3nc[nH]c23)c1	-5%	0%	-11%	-8%	7.1%	-2%	3%	-16%
Cc1cccc(CC(=O)N2CCN=C2SCc2ccc([N+](=O)[O-])cc2)c1	?	-7%	-23%	-14%	1.0%	-2%	3%	-20%
CCCCC(NC(C)=O)c1nc2ccccc2[nH]1 (stereo not drawn)	.	7%	.	7%	0.0%	-6%	5%	-13%
Cc1ccc2c(CN3CCN(Cc4ccccc4)CC3)cc(=O)oc2c1C	5%[46.1 µM]	.	-23%[46.1 µM]	-20%	.	1%	4%	-1%
Cc1ccc(N2C(=O)N3[C@H](c4ccc(F)cc4)[C@@H]4C(=O)N(C5CCCCC5)C(=O)[C@@H]4[C@]3(Cc3ccccc3)C2=O)cc1	.	.	.	8%	.	9%	12%	-6%
O=C(CCN1C(=O)S/C(=C\c2ccc(F)cc2)C1=O)Nc1ccc(O)cc1C(=O)O	.	.	.	-2%	.	6%	7%	-3%
COc1ccc(N2C(=O)C(CC(=O)Nc3ccc(F)cc3)N(CCc3cccs3)C2=O)cc1 (stereo not drawn)	-2%	-9%	?	-7%	-2.6%	-6%	-12%	16%
CSc1ncccc1C(=O)OCC(=O)NCc1cccs1	18%	.	4%	9%	.	-7%	.	-1%
CCN1CCN(C(c2cccs2)C(C)NC(=O)CC(C)C)CC1 (stereo not drawn)	-22%	8%	13%	-5%	-1.4%	9%	5%	-5%
O=C(CSc1nc2ccsc2c(=O)n1Cc1ccccc1)NCC1CCCO1 (stereo not drawn)	-10%[46.1 µM]	.	7%	-6%	.	1%	.	-1%
CC1(C)Cc2nc(-c3ccccc3)nc(SCC(=O)N3CCCC3)c2CO1	-6%[46.1 µM]	.	-20%	-2%	.	1%	5%	-9%
COc1ccc2c(c1)c1c(c(=O)n(Cc3ccccc3)c(=O)n1CC(=O)Nc1cc(C)cc(C)c1)n2C	.	-1%	4%[46.1 µM]	.	-1.9%	.	.	2%
C/C(=N\NC(=O)C(O)c1ccccc1)c1cccnc1 (stereo not drawn)	8%[46.1 µM]	.	20%[46.1 µM]	-2%	.	0%	3%	5%
N#CC1(P(=O)(c2ccccc2)c2ccccc2)CCCC1	-4%[46.1 µM]	.	-1%	-5%	.	-8%	9%	-9%
Cc1c(O)cccc1C(=O)N[C@@H](CSc1ccccc1)[C@H](O)CN1C[C@H]2CCCC[C@H]2C[C@H]1C(=O)NC(C)(C)C	.	-5%&17%	.	2%[18.4 µM]	-2.7%&12%	3%	-53%	?
COc1ccc(-n2ncc3c(=O)n(CC(=O)Nc4ccc(S(=O)(=O)N5CCOCC5)cc4)cnc32)cc1	-19%	?	-6%	-4%	-16%	2%	16%	-25%
COc1ccc(/C=C2/SC(=O)N(CC(=O)Nc3cc(C)on3)C2=O)cc1OC	-5%	-17%	8%	21%	-1.1%	-4%	6%	-10%
COc1ccc(-c2ccc(CCC(=O)O)n2Cc2ccco2)cc1	16%[46.1 µM]	.	-10%	-4%	.	-1%	1%	9%
COc1ccc(CC(=O)Nc2ccc(-c3cn4ccccc4n3)cc2)cc1OC	0%	-23%	10%	-16%	-6.6%	0%	2%	-20%
COC(=O)c1cccc(Nc2c3c(nc4ccccc24)CCC3)c1	?	.	?	0%	.	-3%	-7%	?
O=C(Nc1ccc(F)cc1F)c1cc2n(n1)C(C(F)(F)F)C1CCCCC1N2 (stereo not drawn)	?	-30%	7%	-4%	2.7%	-8%	-3%	7%
COc1ccc2c(c1)oc(=O)c1cc(OC)ccc12	.	.	.	-5%	.	-1%	-4%	52%[activator]
CC(=O)COC(=O)CCc1nc2ccccc2[nH]c1=O	18%	-2%	-17%	4%	0.5%	16%	-10%	.
Cc1ccc(N2C(=S)NC3c4ccccc4OC2(C)C3C(=O)N(C)C)cc1 (stereo not drawn)	5%	.	-2%	5%	.	1%	.	1%
Cc1nn2c(C)nc3sc4c(c3c2nc1=O)CC(C)(C)OC4	-6%	-5%	2%	19%	4.8%	4%	-6%	8%
N#CC1(c2ccccc2)CCN(C2CC(=O)N(c3ccc(F)cc3)C2=O)CC1 (stereo not drawn)	.	.	.	14%	.	-3%	-3%	-16%

More records.
SMILES	Marburg entry inh	Cruzain noTriton	Lassa entry inh	RE007 growth inh	Cruzain Triton	SARS PLpro yeast	NS1 inh	2A StopGo
C=CCOc1ccc(CN(C)c2ccc(S(=O)(=O)N3CCN(C)CC3)cc2[N+](=O)[O-])cc1	?	.	?	-22%	.	2%	.	?
COc1ccccc1CNS(=O)(=O)c1ccc(Br)s1	.	.	.	5%	.	-2%	-26%	23%
O=C(CCc1ccccc1)N(Cc1cccnc1)c1nc2c(F)cccc2s1	.	5%	-22%[46.1 µM]	.	-5.3%	.	.	-4%
CCN(C(=O)COC(=O)Cc1c[nH]c2ccccc12)c1c(N)n(Cc2ccccc2)c(=O)[nH]c1=O	1%[46.1 µM]	.	-10%	-9%	.	2%	.	-12%
O=c1ccc(-c2nc3ccccc3n2Cc2ccccc2Cl)c[nH]1	-5%[46.1 µM]	.	-8%	-14%	.	0%	-2%	-5%
